Source: PubChem (several laboratories)
Ecoli rRNA inh – inhibits bacterial ribosomal RNA function over humanized ribosomes; AID 720706; actives 1.6% (n = 350,000); GFP signal change (wild-type ribosome), % (test concentration not listed); E. coli WT GFP vs humanized-ribosome RFP mutants, fluorescence, 24 h; hits give low values; DMSO median 0, no signal -100;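 active means significant combined selectivity score with lowered wild-type GFP, culture density cut under 30%, mutant RFP and density less affected; inactive means any of these conditions unmet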; further: one replicate is shown; some compounds called inactive have numbers as strong as hits
T cruzi repl – T. cruzi replication inhibition. inhibition, % (test concentration not listed). actives 1.4% (n = 300,000). T. cruzi beta-gal in NIH3T3, luminescence, 90 h;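 active means mean inhibition across valid replicates above about 55%, limit read from the data; inconclusive means mean below that limit but half or more replicates reach it; inactive means mean below it, under half of replicates reach it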;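 further: signal also drops with host cell toxicity which is not excluded here; 0% = plate median of DMSO wells and 100% = zero luminescence signal; higher percent means less beta-gal luminescence so fewer parasites; stock transfer was 50 nL into about 50 µL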
MLL AF4-AF9 inh – inhibitors of human MLL-AF4/AF9 interaction | inhibition, % at 10 µM | AID 651704 | AlphaScreen, biotin-AF4 peptide binding to FLAG-AF9 | P42568 | actives 0.47% (n = 350,000);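 active means every replicate reaching a set inhibition limit, whatever the replicate mean, cut at about 25% in these data; inconclusive means mean inhibition reaches that limit but some replicates miss it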;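 further: 0% = plate neutral control median and 100% = total signal loss; the record names both 10 and 1 µM as test concentration; the first replicate is given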
Target sequence (P42568 whole entry, looked up): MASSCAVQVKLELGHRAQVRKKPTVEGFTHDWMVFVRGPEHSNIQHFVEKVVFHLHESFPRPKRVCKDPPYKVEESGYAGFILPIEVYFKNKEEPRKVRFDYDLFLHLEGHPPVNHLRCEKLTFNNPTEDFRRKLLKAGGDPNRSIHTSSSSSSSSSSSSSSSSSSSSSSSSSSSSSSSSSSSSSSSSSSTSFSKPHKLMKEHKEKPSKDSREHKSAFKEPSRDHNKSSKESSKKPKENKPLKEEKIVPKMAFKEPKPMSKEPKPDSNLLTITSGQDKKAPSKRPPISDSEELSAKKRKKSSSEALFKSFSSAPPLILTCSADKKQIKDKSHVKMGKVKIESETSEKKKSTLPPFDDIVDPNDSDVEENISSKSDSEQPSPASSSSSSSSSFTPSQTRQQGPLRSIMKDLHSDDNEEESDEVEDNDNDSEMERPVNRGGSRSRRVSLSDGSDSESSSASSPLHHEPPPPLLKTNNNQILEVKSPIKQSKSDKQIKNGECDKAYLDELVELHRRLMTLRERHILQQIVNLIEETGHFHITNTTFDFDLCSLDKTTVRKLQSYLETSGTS
RanGTP-Impb inh – inhibitors of RanGTP-importin-beta interaction, primary screen, biochemical, FRET, CFP-Ran, YFP-importin-beta, homogeneous | cell-free CFP-Ran/YFP-importin-beta FRET ratio | inhibition, % (concentration not given with the values) | actives 1.1% (n = 300,000);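 active means most replicates above 15%; inconclusive means exactly half above 15%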;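 further: 0% = DMSO wells and 100% = Ran loaded with GDP instead of GTP; wells of about 40 µL received 100 nL stock; the first replicate is given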
A1 inh – inhibitors of the anti-apoptotic protein A1, read as caspase activation; AID 2462; caspase activation, % (test concentration not listed); MEF A1-2A-BIM cells, Caspase-Glo 3/7 luminescence, 3 h; percent of clofoctol response, vehicle zero; actives 0.066% (n = 330,000);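 active means over half of replicate activation scores above 10%, or exactly half above 10 with the replicate mean above 10; inconclusive means replicate mean below 10 yet half the replicates above 10; inactive means over half of replicates below 10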;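 further: wells of about 30 µL received 50 nL stock; many hits fall short of the cut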
Vif TR-FRET – inhibitors of Vif binding to APOBEC3G peptide, primary screen, biochemical, TR-FRET, GST-Vif 1-94, biotin-A3G peptide, dose response retest (AID 1117319); one-dose inhibition, %; IC50 in µM for titrated hits; actives 0.57% (n = 260,000); TR-FRET GST-Vif / biotin-A3G peptide binding; higher % means a stronger effect; test concentration not given here; strong numbers were not always called active;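 active means above the screen mean plus three standard deviations and confirmed in dose response; inconclusive means results disagree or hit not tested in dose response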;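 further: Vif residues 1-94 fused to GST binding biotinylated APOBEC3G peptide 110-148; 0% = full assay without inhibitor and 100% = GST in place of GST-Vif; retest series ran down from 100 µM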
Calb FLC – C. albicans growth modulation with fluconazole. C. albicans CaCi-2 (fluconazole-resistant clinical isolate) + fluconazole, Alamar Blue growth, 48 h. growth inhibition, % (no concentration beside the values). actives 0.57% (n = 300,000);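 active means most replicates above 75%; inconclusive means exactly half above 75%; inactive means most below 75%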;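 further: all wells also contain fluconazole at 8 µg/ml as a sub-toxic cotreatment; 0% = median of DMSO wells and 100% = median of geldanamycin control wells; wells of about 8 µL received 7.5 nL stock; the first replicate is given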
Beta cell apopt – beta cell apoptosis inhibition; protection from apoptosis, % (test concentration not listed); actives 0.8% (n = 300,000); INS-1E cytokine-induced death, ATP luminescence, 48 h; percent of positive-control rescue, neutral wells zero; AID 435005;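 active means all replicates at 75% or more, or half of them and the mean; inconclusive means half reach 75% but not the mean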;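 further: 0% = cytokine-treated negative control wells and 100% = positive control rescue; higher means more ATP so stronger rescue from cytokine killing; wells of about 40 µL received 100 nL stock; the first replicate is given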
Ecoli rRNA inh OD600 – second read-out of Ecoli rRNA inh, no call of its own (marks repeat the call); OD600 change, %; measured here: OD600 growth;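 optical density of the mix in the first replicate; 0 = DMSO median and -100 = no signal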
Ecoli rRNA inh RFP – also measured in Ecoli rRNA inh; calls as there; RFP signal change, %; measured here: RFP humanized mutant strains;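 first replicate; 0 = DMSO median and -100 = no signal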
* marks the source's active call; other numbers are inactive results; ? = inconclusive; / = not tested or not shown; & = joins results of further samples. The list is partial. The share of hits here may be higher or lower than overall.

canonical_smiles	Vif TR-FRET	Beta cell apopt	RanGTP-Impb inh	Ecoli rRNA inh OD600	MLL AF4-AF9 inh	Ecoli rRNA inh	T cruzi repl	Calb FLC	A1 inh	Ecoli rRNA inh RFP
Cc1noc(C)c1S(=O)(=O)N(C)C[C@H]1Oc2ccc(NC(=O)C3CC3)cc2C(=O)N([C@H](C)CO)C[C@@H]1C	/	4.5	/	16.3	4.2	8.1	/	/	1.1	1.6
Cc1ccc(O)c(/C=N/NC(=O)CN2CCCC2)c1	1.3%	-8.5	-1.1	2.4	0.1	-0.6	-3.5	-0.5	-1.8	0.6
CC1CCC(NC(=O)CN(C)S(=O)(=O)c2ccc3c(c2)c(=O)n(C)c(=O)n3C)CC1 (stereo unspecified)	0.0%	1.3	0.4	-4.2	-0.5	2.4	-8.6	-8.8	2.0	-0.8
Cc1c(C(=O)NCc2ccccn2)oc2ccccc12	-0.4%	-11.9	4.9	/	/	/	12.2	-13.3	0.0	/
COc1cc(S(=O)(=O)NCCCN2CCOCC2)ccc1Cl	-2.4%	-2.5	17.4*	/	/	/	4.4	-4.1	1.3	/
Cc1cc(NC(=O)c2cccc(S(=O)(=O)N3CCCCCC3)c2)n(-c2ccccn2)n1	?	21.5	4.8	/	/	/	15.1	-3.0	0.7	/
Cc1ccc(-n2c(C)nnc2SCC(=O)NC2CC2)cc1	3.8%	/	5.8	19.1	-1.5	12.7	-0.2	-1.8	-1.9	2.3
CCc1nc2ccccc2c(C(=O)O)c1C	1.7%	-2.9	-1.0	/	/	/	-16.2	11.3	0.7	/
CC(C)[C@H](NC(=O)NCCc1ccccc1)C(=O)O	0.3%	-3.5	2.8	/	/	/	-9.3	0.3	0.3	/
Cc1ccc(NC(=O)NNC(=O)c2cc3ccccc3cc2O)cc1	-2.5%	0.3	6.6	15.5	-6.7	7.2	-4.9	?	0.2	15.9
COc1ccc(NC(=O)Cc2nc3ccccc3[nH]2)cc1	-2.6%	-1.7	-0.6	/	/	/	-3.6	/	0.0	/
CN(C(=O)CSc1nc2c(c(=O)[nH]1)CCC2)c1ccccc1	-5.1%	-8.5	-4.3	3.9	-1.9	-1.9	-2.5	20.5	-0.2	-1.4
COc1ccc(CC(=O)NNC(=O)c2cccs2)cc1	2.8%	0.2	2.6	5.6	-4.4	1.9	-10.0	-19.8	-0.5	-0.3
CCCOC(=O)c1ccc(Nc2cc(C)nc3ncnn23)cc1	-1.5%	1.1	-0.9	/	/	/	/	-5.0	0.3	/
S=c1[nH]nc(-c2cccc3ccccc23)n1-c1cccnc1	/	-6.1	7.4	4.9	-14.6	3.0	-18.3	-0.2	0.2	-2.2
COC(=O)c1ccc(CSc2nc3cc(Cl)ccc3s2)o1	-5.0%	-6.3	6.8	/	/	/	-6.5	13.2	-0.3	/
C=CCOc1ccccc1CNCCCN1CCOCC1	6.3%	7.0	-4.8	/	/	/	3.0	-5.0	-1.4	/
Cc1ccc(-c2nc(CS(=O)CC(=O)NCc3ccccn3)c(C)o2)cc1 (stereo unspecified)	-7.0%	-5.6	7.1	-11.0	-2.5	-1.7	1.8	-0.7	-0.2	-0.7
Cn1c(=O)n(C)c2cc(NC(=O)C(F)(F)F)ccc21	5.0%	10.0	0.4	/	/	/	1.0	17.0	0.8	/
Cc1cccc(C(=O)Nc2onc(C)c2C#N)c1	9.0%	10.3	0.3	/	/	/	5.7	?	-0.8	/
C[C@H]1CN([C@@H](C)CO)C(=O)Cc2cc(NC(=O)CCC(F)(F)F)ccc2O[C@H]1CN(C)S(=O)(=O)c1ccc(F)cc1	/	-8.3	/	-1.4&9.8	-2.1&-0.8	1.1&12.1	/	/	-0.5	-0.3&-1.5
O=C(C1CC(=O)N(C2CCCCC2)C1)N1CCN(c2ccccc2)CC1 (stereo unspecified)	/	-0.1	-4.3	2.0	0.9	0.1	2.4	-2.2	0.3	2.5
CN(C)c1ccc(-c2nn3c(-c4ccc(Cl)cc4)nnc3s2)cc1	19.6%	/	?	/	/	/	-6.0	-6.8	/	/
COc1ccc(Cn2c(CCC(=O)NCCC(C)C)nc3ncccc3c2=O)cc1	/	-5.7	1.4	5.1	-2.9	5.2	5.7	17.6	1.3	-0.7
Cc1ccc(S(=O)(=O)N(CC(=O)N/N=C/c2cccc(Cl)c2)c2cccc3cccnc23)cc1	14.7%	41.3	-2.8	/	/	/	/	-0.9	0.1	/

(next part)
canonical_smiles	Vif TR-FRET	Beta cell apopt	RanGTP-Impb inh	Ecoli rRNA inh OD600	MLL AF4-AF9 inh	Ecoli rRNA inh	T cruzi repl	Calb FLC	A1 inh	Ecoli rRNA inh RFP
COc1ccc([C@H]2C=C(C(=O)O)O[C@@H](OCCCCO)C2)cc1	-5.5%	3.2	0.9	7.5	-3.9&-0.7	1.9	-18.1	11.1	-1.6	5.6
CCCCNc1ccc(C(CC(N)=O)NC(=O)Cc2ccc(Br)cc2)cc1[N+](=O)[O-] (stereo unspecified)	/	-11.0	-9.2	4.8	0.5	4.7	-22.3	-6.3	0.3	-6.4
Cc1ccc(NC(=O)CN(C)C(=O)c2ccccc2Sc2ccccc2C#N)cc1	1.3%	-0.8	2.4	-20.1	-0.8	-14.5	-4.4	-0.6	-0.5	-3.6
Cc1cc(C)c(C#N)c(N2CCN(c3ccc(F)cc3)CC2)n1	3.4%	-2.4	2.9	2.5	7.1	0.1	-29.9	-11.6	-0.6	-2.5
O=C(CSc1nc2ccncc2[nH]1)Nc1ccccc1C(F)(F)F	0.0%	-5.4	2.7	/	/	/	4.4	0.5	0.2	/
COc1cccc(NC(=S)N2CCC(Cc3ccccc3)CC2)c1	/	3.9	/	-20.2	-0.5	4.8	/	-14.6	1.4	-0.3
COc1ccc(Cl)c2sc(N3CCN(C(=O)c4ccco4)CC3)nc12	4.4%	/	-0.7	-0.1	0.6	-5.7	-0.3	2.6	-0.2	1.5
CN(C)c1ncc(S(=O)(=O)c2ccc(Cl)cc2)c(-c2ccccc2)n1	5.3%	-4.0	-0.1	/	/	/	15.3	-16.3	0.3	/
Cc1ccc(Cl)cc1N1CCN(C(=O)c2cn(C)c(=O)c3c2c2ccccc2n3C)CC1	6.5%	/	-4.8	-7.8	14.0	-1.3	52.0	-11.0	-0.5	19.9
O=C(COC(=O)CCCSc1nc2ccccc2[nH]1)Nc1ccc(Oc2ccccc2)cc1	/	-0.2	0.0	-55.0	-0.7	-34.8	-5.2	16.4	-1.2	0.9
COc1cc(/C=C(/C#N)c2ccccc2F)ccc1OCc1ccccc1	/	-2.3	-1.6	/	3.2	/	33.1	4.3	0.0	/
Cc1ccc(-c2ccc(=O)n(CC(=O)NCc3ccc(F)cc3)n2)cc1	6.1%	-4.5	-0.9	7.3	-2.8	-8.0	-11.5	-2.5	-0.8	1.2
COc1ccc(OCC(=O)OC(C)CN2CCOCC2)cc1 (stereo unspecified)	/	3.6	1.6	/	/	/	-24.6	3.2	-0.3	/
COc1ccc(CNC(=O)CN(C(=O)c2csnn2)c2ccccc2F)cc1	/	-2.4	-0.7	6.3	0.0	2.3	-18.3	-3.3	-0.2	2.0
CCOC(=O)C1=C(CNCCc2ccc(Cl)cc2)NC(=O)NC1c1cccc([N+](=O)[O-])c1 (stereo unspecified)	?	-10.9	2.0	3.2	9.0	9.1	18.3	-3.9	-0.8	3.0
CCOc1ccc(-n2c(=S)sc3c(=O)n(-c4ccc(F)cc4)c(SCC(=O)O)nc32)cc1	1.1%	/	-4.7	6.0	3.4	2.2	-6.2	-4.5	0.7	-2.5
CC1CCCC(C)N1/N=C/c1cccc([N+](=O)[O-])c1 (stereo unspecified)	/	-2.6	?	5.3	-10.4	7.8	-5.5	0.0	0.7	-1.3
Cc1cc(NC(=O)c2cc(-c3ccncc3)nc3c(C)cccc23)no1	-5.3%&-3.1%	13.3	2.9	/	/	/	0.9	5.1	0.2	/
CCOc1ccc(NC(=O)COc2ccc(S(=O)(=O)N3CCOCC3)cc2)cc1	1.2%	-0.3	/	8.7	-0.5	5.9	/	/	0.5	-0.4
CCCCN1C(=O)C(NC(=O)c2cccnc2)(C(F)(F)F)C2=C1CC(C)(C)CC2=O (stereo unspecified)	2.1%	-8.4	-1.8	/	/	/	-9.7	7.7	-1.5	/
CC(=O)N(c1ccc2oc(=O)sc2c1)S(=O)(=O)c1ccc(C(=O)O)cc1	/	-4.8	1.1	2.1	-3.5	3.9	-7.0	-1.5	?	-1.9
Cc1ccc(NC(=S)N2CCC(N(C)CC3CCCO3)CC2)cc1C (stereo unspecified)	/	-15.5	1.4	1.3	-4.9	10.2	19.8	-6.1	1.0	-1.2
O=S(=O)(c1ccc(Cl)cc1)N1CCN(C2CCN(Cc3ccccc3)CC2)CC1	4.5%	-3.9	-3.3	/	/	/	60.6*	-19.0	0.7	/
Cc1ccc(OCc2cc(C(=O)NC3CCCCC3)no2)cn1	-4.4%	/	1.4	-30.8	-0.7	-22.6	-22.1	5.6	/	-3.5
CCOC(=O)c1nn(-c2ccccc2)c2nnc(Cc3ccc(C)cc3)c(=O)n12	9.7%	-3.0	6.4	16.6	0.2	8.9	-10.4	-16.2	1.2	2.8
Cc1ccc(S(=O)(=O)N2CCCC2C(=O)OCc2nc3ccccc3s2)cc1 (stereo unspecified)	1.9%	-2.8	11.3	/	/	/	0.1	14.5	0.0	/
OC(CN1CCN(c2ccc(C(F)(F)F)cn2)CC1)c1ccccc1 (stereo unspecified)	-5.8%	-2.3	?	-9.6	/	8.2	13.4	-1.1	-0.7	-21.8
C#CCOCCOCCOCCNc1nc(N2CCN(C(=O)[C@H](CCCCN)n3cc([C@@H](N)C(C)CC)nn3)CC2)nc(N2CCN(C(=O)[C@H](Cc3ccc(O)cc3)n3cc([C@@H](N)CC(C)C)nn3)CC2)n1 (stereo partly specified)	21.3%	-8.2	?	9.6	30.1*	15.4	-2.7	10.7	0.5	28.8
